Compound activity deposited in PubChem by several laboratories.
Vif A3G – inhibitors of Vif binding to APOBEC3G peptide, primary screen, biochemical, TR-FRET, GST-Vif 1-94, biotin-A3G peptide, dose response retest (AID 1117319). hit rate 0.57% among 260,000. TR-FRET GST-Vif / biotin-A3G peptide binding; higher % means a stronger effect; test concentration not given here; strong numbers were not always called active. inhibition, %, or IC50 in µM where a hit was titrated;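 active means above the screen mean plus three standard deviations and confirmed in dose response; inconclusive means results disagree or hit not tested in dose response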;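 further: Vif residues 1-94 fused to GST binding biotinylated APOBEC3G peptide 110-148; 0% = full assay without inhibitor and 100% = GST in place of GST-Vif; retest series ran down from 100 µM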
HNF4A DNA FP – change in binding of human HNF4 alpha to DNA; activity change, % at 10 µM; HNF4a-FITC DNA binding, fluorescence polarization, 1 h; P41235; hit rate 0.3% among 360,000; in the data active means activity change above about 30%, passing the limit was not always enough;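 further: controls were the assay level and a saturating level of protein; the project sought stronger binding though the title names inhibitors; some compounds called inactive have numbers as strong as hits; positive values seem to mean higher polarization but the record does not say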
Target sequence (P41235 whole entry, looked up): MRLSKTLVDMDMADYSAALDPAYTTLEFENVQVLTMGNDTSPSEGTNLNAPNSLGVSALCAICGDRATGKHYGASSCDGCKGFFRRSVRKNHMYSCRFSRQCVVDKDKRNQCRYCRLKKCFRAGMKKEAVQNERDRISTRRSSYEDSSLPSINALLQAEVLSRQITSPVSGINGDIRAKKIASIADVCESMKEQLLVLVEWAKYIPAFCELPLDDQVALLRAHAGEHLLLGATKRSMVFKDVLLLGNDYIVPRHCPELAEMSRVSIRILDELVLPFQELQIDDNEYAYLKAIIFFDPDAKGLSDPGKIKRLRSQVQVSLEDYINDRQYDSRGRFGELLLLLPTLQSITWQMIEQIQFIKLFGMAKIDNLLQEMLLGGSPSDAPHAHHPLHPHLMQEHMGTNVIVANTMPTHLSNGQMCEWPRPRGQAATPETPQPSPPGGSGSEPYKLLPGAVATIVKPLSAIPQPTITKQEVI
RanGTP-Impb inh – disruptors of Ran-importin-beta complex formation – biochemical, FRET, CFP-Ran, YFP-importin-beta, homogeneous, primary screen. hit rate 1.1% among 300,000. inhibition, % (concentration not given with the values). cell-free CFP-Ran/YFP-importin-beta FRET ratio. AID 2216;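 active means most replicates above 15%; inconclusive means exactly half above 15%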;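 further: 0% = DMSO wells and 100% = Ran loaded with GDP instead of GTP; wells of about 40 µL received 100 nL stock; the first replicate is given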
Numbers without * were called inactive; u = inconclusive; x = no result given. Some of the compounds tested; the hit share may differ from the screen's.

The line under a structure holds: HNF4A DNA FP	RanGTP-Impb inh	Vif A3G
COC(=O)C1=C(N)n2c(s/c(=C\c3cccnc3)c2=O)=C(C(=O)OC)C1c1cccnc1 (configuration not stated)
 : x	u	18%
CCCN1C=CC(=C/C=C(\C#N)C(=O)OCC)C=C1
 : x	u	30%
NC(=O)c1sc2nc3c(c(-c4cccs4)c2c1N)CCCC3
 : x	-4.4	-30%
CCOc1cc(/C=C2/SC(=S)N(C)C2=O)ccc1Oc1ccc([N+](=O)[O-])cc1[N+](=O)[O-]
 : x	-1.7	-1%
O=C(O)C1C2CCC(O2)C1C(=O)Nc1cccc(F)c1 (configuration not stated)
 : x	0.0	17%
CCOC(=O)Cc1csc(NC(=O)c2ccc(Br)s2)n1
 : x	1.0	25%
COc1ccccc1NC(=O)C1C2C=CC(O2)C1C(=O)O (configuration not stated)
 : x	2.7	9%
CCOc1ccc(C2C=C(c3ccc(C)cc3)Nc3ncnn32)cc1 (configuration not stated)
 : x	-1.4	u
O=C(c1ccc2c(c1)OCO2)n1nnc2ccccc21
 : x	-2.8	-1%
O=C(c1ccc(-c2ccccc2)cc1)c1ccc([N+](=O)[O-])cc1
 : x	-0.1	11%
O=C(O)/C(=C\C(=O)c1ccccc1)Nc1ccccc1
 : x	-4.5	-6%
COc1ccc(/C=C2\CCCc3c2nc2ccccc2c3C(=O)OCC(=O)c2c(N)n(C)c(=O)n(C)c2=O)cc1
 : x	2.5	0%
C/C=C/C=C/C(=O)Nc1cccc(C2=NOC3(C2)C[C@H](C(N)=O)N(C(=O)CC(c2ccccc2)c2ccccc2)C3)c1 (some centres not stated)
 : x	1.7	-2%
CC1(C)CC(=O)C(C=Nc2cccc(/N=C/C3=C(O)CC(C)(C)CC3=O)n2)=C(O)C1
 : x	32*	-3%
CN1CCc2c(sc(NC(=O)c3cc4cc([N+](=O)[O-])ccc4s3)c2C(N)=O)C1
 : x	3.6	15%
CCOC(=O)C(CC)(CCC(=O)OC)c1csc(Nc2ccccc2O)n1 (configuration not stated)
 : x	u	u
Cc1ccc(C)n1-c1cccc(C(=O)O)c1
 : x	-1.6	0.72µM*
OC[C@H]1O[C@@H](Oc2cc(O)cc(/C=C/c3ccc(O)cc3)c2)[C@H](O)[C@@H](O)[C@@H]1O
 : x	3.6	-7%
CCCCNC(=O)C(c1ccc(OCC(=O)OC)c(C(=O)OC)c1)N(CCc1c[nH]c2ccccc12)C(=O)CCCCCN1C(=O)NC(c2ccc(-c3ccccc3)cc2)C(C(=O)OCc2ccccc2)=C1C (configuration not stated)
 : x	8.4	4%
C#CCOCCOCCOCCNc1nc(N2CCN(C(=O)[C@H]([C@@H](C)CC)n3cc([C@@H](N)CO)nn3)CC2)nc(N2CCN(C(=O)[C@H](Cc3cc4ccccc4[nH]3)n3cc([C@@H](N)Cc4ccc(O)cc4)nn3)CC2)n1
 : x	7.5	1%
CC(=O)Nc1ccc(Cc2nc3c([nH]2)c(=O)n(C)c(=O)n3C)cc1
 : x	0.8	-3%
CCOC(=O)C(NC(C)=O)(N1CCOCC1)C(F)(F)F (configuration not stated)
 : x	2.2	4%
CSc1ccc(CNc2ccccc2)cc1
 : x	0.3	22%
Cn1c(=O)c2c(ncn2CC(=O)N/N=C/C=C\c2ccccc2[N+](=O)[O-])n(C)c1=O
 : x	3.2	u
CCC(=Nc1ccccc1)C1=C(O)CC(C)(C)CC1=O
 : x	4.7	5%
CCCCn1c(SCC(N)=O)nnc1-c1cc(OC)c(OC)c(OC)c1
 : x	7.1	23%
CS(=O)(=O)c1nc(-c2cccs2)cc(C(F)(F)F)n1
 : x	-1.7	-12%
CCOCCn1c(=NC(=O)c2cc(Cl)sc2Cl)sc2cc(S(N)(=O)=O)ccc21
 : x	-1.7	-23%
Cc1nc2cc(N3CCCCC3)c(NC(=O)c3ccncc3)cc2c(=O)n1Cc1ccc(Cl)cc1
 : x	0.6	4%
COc1ccc(Br)cc1/C=N/NC(=O)c1cc(Br)ccc1O
 : x	0.2	-9%
COC(=O)c1[nH]c2ccc(C)cc2c1NC(=O)CCN1CCN(C2CCCCC2)CC1
 : x	-0.1	4%
CC(=O)Nc1ccc(Cc2ccc3[nH]c(=O)cc(C)c3c2)cc1
 : x	7.9	3%
Cc1nc(C)c(/C(O)=C/c2nc3ccc([N+](=O)[O-])cc3oc2=O)o1
 : x	u	1%
N#CC1=C(N)Nc2ncnn2C1c1ccccc1 (configuration not stated)
 : x	4.9	13%
Cc1cc(C(=O)OCC(=O)c2ccc(Br)s2)c(C)o1
 : x	0.3	-22%
COc1ccccc1C1C=C(c2ccc(Cl)cc2)Nc2nc(NS(C)(=O)=O)nn21 (configuration not stated)
 : x	-4.5	u
N/C(=N\OCc1ccc([N+](=O)[O-])cc1)c1ccccn1
 : x	0.4	-5%
C=CCOc1c(Cl)cc(CNc2ccc(C)c(Cl)c2)cc1OC
 : x	0.1	4%
CN(CC(=O)Nc1ccc(F)c(F)c1F)c1cnccn1
 : x	3.0	-4%
COc1cc([N+](=O)[O-])cc(/C=N/NC(=O)CSc2nnc(-c3ccccc3)n2C)c1O
 : x	2.8	12%
CCc1ccccc1NC(=O)CSc1nc(-c2ccccc2)nn1C(=O)c1cccc([N+](=O)[O-])c1
 : x	-0.7	-2%
COc1ccccc1N1CCN(C/C=C/c2ccc(N(C)C)cc2)CC1
 : x	-1.9	17%
Cc1cccc(C(=O)O/N=C/c2c(N3CCOCC3)n(C)c3ccccc23)c1
 : x	u	0%
COc1ccc(-c2nc(CC(=O)O)cs2)cc1OC
 : x	-4.0	-7%
COC(=O)CSc1nc2sc3c(c2c(=O)n1C1CCCCC1)CCN(C)C3
 : x	26*	14%
CC(=O)c1ccc(-c2ccccc2[C@H]2[C@H]3C=CC[C@@H](C)[C@@H]3C(=O)N2Cc2ccccc2)cc1
 : x	1.3	0%
C/C(CC(=O)Nc1cc(C)ccn1)=N\NC(=O)COc1cccc(C)c1
 : x	1.6	-2%
COc1ccc(NCc2ccc(OC)c(OC)c2)cc1
 : x	-7.0	u
O=C(c1n[nH]c2c1CCCC2)n1ccnc1
 : x	3.1	11%
Cc1ccc(-c2nc(SCC(=O)NCCN3C(=O)CSC3=O)[nH]c2-c2ccc(C)cc2)cc1
 : x	-2.7	4%

Carrying on:
The line under a structure holds: HNF4A DNA FP	RanGTP-Impb inh	Vif A3G
N#C[C@@H]1[C@@H]2C(=O)N(c3ccc4c(c3)OCCO4)C(=O)[C@@H]2C2c3ccccc3C=CN21 (some centres not stated)
 : x	19*	14%
C[C@H](C(=O)C=[N+]=[N-])N1C(=O)c2ccccc2C1=O
 : x	7.6	0%
Cc1c(Cl)cccc1NC(=S)N/N=C/c1ccccc1Cl
 : x	-0.8	u
CCc1c(C)c(C#N)c2nc3ccccc3n2c1Cl
 : x	21*	24%
CCOC(=O)C1CCCN(c2ncnc3c2[nH]c2cccc(OC)c23)C1 (configuration not stated)
 : x	-1.2	-2%
Cc1sc(/N=C/c2c(O)ccc3ccccc23)c(C#N)c1C
 : x	-1.8	5%
Cc1ccc(Cc2c(-c3ccc(F)cc3)nc3c(C)cc(Br)cn23)cc1
 : 3.6	x	x
CCCS(=O)(=O)NC(=O)C1(C)CCN(C(=O)c2ccc3ccccc3n2)C1 (configuration not stated)
 : -4.4	x	x
OCc1ccccc1-c1cccc2nccn12
 : -46	x	x
Nc1cc(Cl)ccc1CN1C(=O)c2ccccc2C1=O
 : 5.8	x	x
Cc1cc(C(O)c2ncc(-c3ccccc3)[nH]2)ccc1F (configuration not stated)
 : 0.7	x	x
CC12CCC(=O)C=C1CCC1C2C(O)CC2(C)C1CCC2(O)C(=O)COC(=O)CCC1CCCC1 (configuration not stated)
 : -0.1	x	x
O=C(Nc1cccc(OC(F)(F)F)c1)c1cccc2c(-c3cccnc3)coc12
 : -2.6	x	x
CN1CCN(c2ncnc3c2ncn3[C@H]2CN(Cc3ccco3)C[C@@H](CO)O2)CC1
 : 0.8	x	x
COc1cc(/C=C/CNC[C@H]2O[C@@H](n3cnc4c(N)ncnc43)[C@H](O)[C@@H]2O)ccc1O
 : 2.0	x	x
CCNC(=O)C1(C)CCN(C(=O)c2cccs2)C1 (configuration not stated)
 : -1.2	x	x
C#CCOCCOCCOCCNc1nc(N2CCN(C(=O)CCCCCCCCCCNC(=O)[C@H](CCCCN)n3cc(C)nn3)CC2)nc(N2CCN(C(=O)CCCCCCCCCCNC(=O)[C@@H]([C@H](C)CC)n3cc(CCCCCN)nn3)CC2)n1
 : 165	x	x
Cc1ccc(-c2cnc(C(O)c3ccc(Cl)c(F)c3)[nH]2)cc1 (configuration not stated)
 : -1.5	x	x
Cc1cc(Cl)ccc1C(O)c1ncc(-c2ccc(F)cc2)[nH]1 (configuration not stated)
 : 2.3	x	x
CC(C)(C)OC(=O)NCCCCCNC(=O)c1[nH]cnc1C(=O)N[C@@H](Cc1ccccc1)C(=O)OC(C)(C)C
 : 0.8	x	x
COCCn1c(C)cc(/C=N/NC(=O)c2cc3ccccc3cc2O)c1C
 : 1.7	x	x
CCCCCC#CCN1CCN(C23CC4CC(CC(C4)C2)C3)CC1
 : -2.2	x	x
COc1ccc(C(=O)NCC(=O)OCC(=O)c2c(C)[nH]c3ccccc23)cc1OC
 : 2.0	x	x
CCc1nc2c(OCc3ccc(C(=O)OC)cc3)cccn2c1N(C)C(=O)C(C)C
 : 0.7	x	x
CC(=O)N1CCN(c2ccc(NCc3ccc(-c4cccc(Cl)c4)o3)cc2)CC1
 : 8.6	x	x
O=C(CSCC(=O)c1ccc([N+](=O)[O-])cc1)c1ccc([N+](=O)[O-])cc1
 : 3.9	x	x
CSC1=NC=C(C#N)C2=NC(c3ccc(Cl)cc3)NN12 (configuration not stated)
 : -2.1	x	x
O=C1C(=O)C(Cl)=C(Cl)C(Cl)=C1Cl
 : -22	x	x
N#Cc1ccc(OCC(=O)Nc2ccc(S(=O)(=O)N3CCOCC3)cc2)cc1
 : 1.9	x	x
CCN(CC)C(=O)c1cccc(-c2csc(C(C)(O)c3ccc(F)c(F)c3)n2)c1 (configuration not stated)
 : 1.7	x	x
Cc1cc(C)cc(C(O)c2ncc(-c3ccc(F)cc3)[nH]2)c1 (configuration not stated)
 : 0.8	x	x
Cc1cc2nc(-c3ccc(Cl)cc3)c(Cc3cccc(F)c3)n2c(C)c1Br
 : 8.5	x	x
COc1ccc(CN2CCC(C(=O)NC(C)c3cccc4ccccc34)CC2)cc1 (configuration not stated)
 : 0.7	x	x
CCN(CC)Cc1cc(Oc2ccc(O)c(CN(CC)CC)c2)ccc1O
 : 1.9	x	x
O=C(NC(c1ccc(Cl)cc1)c1cnccn1)C1CCN(CCCc2ccccc2)CC1 (configuration not stated)
 : -0.8	x	x
Nc1ccc(-c2c3ccc(=O)cc-3oc3cc(O)ccc23)c(C(=O)O)c1
 : -97	x	x
COc1ccccc1Cc1c(-c2ccc(C#N)cc2)nc2c(Cl)cc(C(F)(F)F)cn12
 : 61	x	x
O=C(NCc1cccc(C(F)(F)F)c1)c1[nH]c(C(F)(F)F)nc1-c1ccccc1
 : 2.6	x	x
Nc1nc2cc(Cl)ccc2cc1C(=O)NCCCc1ccccc1
 : -0.3	x	x
CCCS(=O)(=O)NC(=O)C1(C)CCCN(C(=O)c2ccc3c(c2)OCO3)C1 (configuration not stated)
 : 0.0	x	x
COCCNC(=O)C1(C)CCN(Cc2noc(-c3c(C)noc3C)n2)C1 (configuration not stated)
 : 3.8	x	x
Cc1ccc(Cc2c(-c3ccco3)nc3ccc(Cl)cn23)cc1
 : -0.7	x	x
C#CCOCCOCCOCCNc1nc(N2CCN(C(=O)CCCCCCCCCCNC(=O)[C@H](CO)n3cc(CCCSC)nn3)CC2)nc(N2CCN(C(=O)CCCCCCCCCCNC(=O)[C@H](CCCN=C(N)N)n3cc(C[C@@H](C)CC)nn3)CC2)n1
 : 279	x	x
CN(CCOc1ccccc1)Cc1ccccc1
 : -1.2	x	x
O=C(CN1CCCC1)Nc1nc(-c2ccc(Cl)cc2)cs1
 : -6.8	x	x
CCNc1cc(O)ccc1C
 : -22	x	x
Nc1ncnc2c1ncn2C1OCC(O)C1O (configuration not stated)
 : -0.6	x	x
CC1Oc2ccc(C#N)cc2N(Cc2ccc(F)cc2)C1=O (configuration not stated)
 : 3.6	x	x

Ordered by the number under Vif A3G (falling): some entries from above
The line under a structure holds: HNF4A DNA FP	RanGTP-Impb inh	Vif A3G
COC(=O)C1=C(N)n2c(s/c(=C\c3cccnc3)c2=O)=C(C(=O)OC)C1c1cccnc1 (configuration not stated)
 : x	u	18%
COc1ccccc1N1CCN(C/C=C/c2ccc(N(C)C)cc2)CC1
 : x	-1.9	17%
COC(=O)CSc1nc2sc3c(c2c(=O)n1C1CCCCC1)CCN(C)C3
 : x	26*	14%
N#CC1=C(N)Nc2ncnn2C1c1ccccc1 (configuration not stated)
 : x	4.9	13%
Cc1ccc(-c2nc(SCC(=O)NCCN3C(=O)CSC3=O)[nH]c2-c2ccc(C)cc2)cc1
 : x	-2.7	4%
Cc1nc(C)c(/C(O)=C/c2nc3ccc([N+](=O)[O-])cc3oc2=O)o1
 : x	u	1%
CC1(C)CC(=O)C(C=Nc2cccc(/N=C/C3=C(O)CC(C)(C)CC3=O)n2)=C(O)C1
 : x	32*	-3%
